Tgondii IFNg: T. gondii growth inhibition under IFN-gamma; Toxoplasma gondii growth in IFN-gamma-treated host cells; hits give low values; reference of the scale not given here; activity change, negative = inhibition, %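 (about 20 µM by stock and volumes)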; hit rate 3.8% among 69,000;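 active = below -70%; inconclusive = fit judged invalid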;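 also: host cells are HeLa cells infected with Toxoplasma gondii; parasite growth read as luciferase light; one replicate is shown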
The depositor's hits bear a star; i = inactive; ? = inconclusive; & = joins results of further samples. Some of the compounds tested, so the mix of outcomes need not match the whole.

structure	Tgondii IFNg
Cc1nn(CC(=O)NC2CCN(c3nc(C)c(C)c(=O)[nH]3)CC2)c(C)c1C	5.2
CC(C)NC(=O)CC1CC2(CCN(C(=O)COc3ccccc3)CC2)Oc2ccccc21 (stereo unspecified)	-51.5
CCc1[nH]c2c(CNC(=O)CCn3cnnn3)cc(F)cc2c1C	14.4
Cc1noc(C)c1C1CCCN1C(=O)CCNC(=O)c1ccc(F)cc1 (stereo unspecified)	-17.8
CCC(C#CCN1CCCCC1)(CC)OC(C)=O	-49.0
COc1nc2ccccc2nc1CCC(=O)O	-3.0
CC(C)NC(=O)N1C[C@H]2C[C@H](C(=O)Nc3ccccc3)[C@@H](C1)O2	-5.2
c1ccc(Oc2cccc(CN3CCC4(CCNCC4)C3)c2)cc1	?
O=C(NCc1ccc(S(=O)(=O)NCCSCc2ccco2)s1)c1ccccc1	40.8
O=C(NCCCn1ccnc1)Nc1c[nH]c2cc(Cl)ccc2c1=O	305.5
CC(=O)N1[C@@H](CO)[C@H](c2ccccc2)[C@@H]1CN(C)S(=O)(=O)c1ccccc1	-17.9
CCOc1ccc(C(=O)NCCc2csc(-c3ccc(Cl)cc3)n2)cc1	-63.5
CCc1ccc(NC(=O)c2c(O)c3cccnc3[nH]c2=O)cc1	215.1
N/C(=N\OC(=O)CCCOc1ccc(Cl)cc1Cl)c1ccncc1	3.0
CC(=O)Nc1ccc(C#CC2(NC(=O)CC3CC(C)(C)OC3=O)CCCCC2)cn1 (stereo unspecified)	38.9
COc1cc(OC)cc(C(=O)N2CCC3(CC2)NC(=O)c2cc(C)ccc2N3C)c1	62.1
CN(C)CC(=O)N1[C@H](CO)[C@H](c2ccc(-c3cccc(C(=O)N(C)C)c3)cc2)[C@@H]1C#N	9.7
Cc1cccnc1CN(C)Cc1nccn1C	9.5
O=C(Nc1ccc(F)cc1)N1C[C@H]2[C@@H](c3ccccc31)[C@@H](CO)N2Cc1ccccc1Cl	15.0
COc1ccccc1Nc1snc2[nH]c(C(=O)c3ccc(C)cc3)cc12	0.4
CCn1cc(NC(=O)c2cccc(CN3C[C@@H](C)O[C@@H](C)C3)c2)nn1	-50.7
CCCNc1ncc(-c2nccn2CC2CCOCC2)cn1	0.6
Cc1nc(-c2cc(C(=O)NCCO)c3ccccn23)cs1	-11.9
O=C(Nc1cccc(F)c1)NC1CCN(CC(=O)N2CCOCC2)CC1	113.4
Cc1nc(C(F)(F)F)nc(-c2ccc(C(C)N3CCOCC3)cc2)c1C (stereo unspecified)	-40.6
Cc1cccc(C(=O)NCCc2csc(-c3cccc(F)c3)n2)c1	-74.6*
COC(=O)c1ccccc1NC(=S)N1CCC(C(=O)c2ccc3c(c2)OCCO3)CC1	-49.8
CC1CCN(c2ncnc3c2cnn3CC(=O)Nc2cccc(Br)c2)CC1	13.7
C[C@H]1CCCCO[C@@H](CN(C)C(=O)C2CCCCC2)[C@@H](C)CN([C@@H](C)CO)C(=O)c2cc(NS(=O)(=O)c3ccccc3)ccc2O1	-30.6
Cc1ccc2[nH]cc(CCNC(=O)c3cc(-c4ccccn4)nc4ccccc34)c2c1	60.7
CN1CC2(CCN(C(=O)c3cccc4cc[nH]c34)C2)OC1=O (stereo unspecified)	-5.6
COc1cccc(C(=O)NCCc2sc(-c3cccc(C)c3)nc2C)c1	i
CCSc1ncc(-c2c(-c3ccccc3)ncn2Cc2cccnc2)cn1	-9.3
O=C1NCC[C@@]12CN(S(=O)(=O)C1CC1)C[C@H]2c1ccccc1	-43.8
O=C(c1ccncc1)N1CCC(n2nnc3cccnc32)CC1	-25.0
CC(=O)N1CCC2(CC1)CN(C(=O)c1cccn1C)Cc1ccccc12	-5.8
Cc1c(CNC(=O)c2cc(COc3ccccc3F)[nH]n2)oc2ccccc12	-47.0
Cc1cccc(NC(=O)N2CCC[C@]3(C(=O)N(C)C)CN(Cc4cnn(C)c4)C[C@H]3C2)c1	3.0
C/C(=N\NC(=O)c1ccccc1[N+](=O)[O-])c1ccc(Br)s1	38.9
Cc1cccc(NC(=O)CN2C(=O)CCc3cc(S(=O)(=O)N4CCOCC4)ccc32)c1	38.1
Cc1nc2ccc(C(=O)N3CCN(Cc4ccccc4F)C[C@@H]3C(C)C)cc2[nH]1	19.6
Cc1noc(C2CN(c3ncccn3)CCO2)n1 (stereo unspecified)	8.0
COCCN1C[C@H]2[C@H](C(=O)Nc3ccccc3)CCS(=O)(=O)[C@H]2C1	-10.6
CC(=O)N1[C@@H](CO)[C@@H](c2ccccc2)C12CN(S(=O)(=O)c1ccccc1)C2	-34.7
COc1ccc(CC2CN(C(=O)Cc3cnc(C)[nH]c3=O)CCO2)cc1 (stereo unspecified)	-1.6
Cc1ccc(NC(=O)C(=O)NCCc2csc(-c3cccc(F)c3)n2)cc1	53.4
CC(C)N(C)Cc1ncn2c1CN(C(=O)c1cscn1)CCC2	-1.0
Cc1cccc(COC[C@]23COC[C@H]2CN(c2ncc(F)cn2)C3)n1	-29.7
CS(=O)(=O)N1CCC2(CC1)CCn1c(C3CC3)cnc12	50.4
O=C(CC1Nc2c3ccccc3nc(=S)n2C1=O)NCc1cccc(Cl)c1 (stereo unspecified)	10.3
COC(=O)c1csc(C(=O)c2c[nH]c3ccccc23)n1	12.3
COc1ccccc1C(=O)Nc1ccc2c(c1)C(=O)N(C)C[C@H](OC)[C@@H](C)CN(C(C)=O)[C@@H](C)CO2	27.5
Cn1c(Cc2ccccc2)nnc1SCc1c(F)cccc1Cl	8.6
Fc1cccc(CN2CCN(Cc3cccc(Cn4cccn4)c3)CC2)c1	-16.7
COCCC(=O)c1cc(-c2ccn[nH]2)n2ccccc12	-29.3
CCc1csc(CNC(=O)c2ccc(=O)[nH]c2)n1	119.1
CC1(C)OC[C@@H](COC(=O)CCc2ccc(OC[C@@H](O)CNCCNC(=O)N3CCOCC3)cc2)O1	0.2
O=C(Nc1cccc(Cl)c1)N1C[C@H]2[C@@H](c3ccccc31)[C@@H](CO)N2Cc1cccnc1	-3.9
CCc1c(C)nc2cc(C(C)(C)C)[nH]n2c1=O	-8.4
CC(C)c1csc(C2CC(=O)NCc3nc4ccccn4c32)n1 (stereo unspecified)	9.5

Going on with the list.
structure	Tgondii IFNg
Cc1occc1C(=O)N1CCC2(CC1)CN(Cc1nccs1)CCO2	2.6
Cc1nc(-c2ccc(Cl)cc2)sc1CCNC(=O)c1ccccc1	-42.7
CC=Cc1ccc2n(c1=O)C[C@@H]1[C@@H](CO)[C@H](C(=O)NCC)N(Cc3cccc(F)c3)[C@H]21 (mixture of isomers)	0.1
Cc1cccc(Cl)c1S(=O)(=O)N1CC(c2ccccn2)C1	3.8
Cc1nc(-c2ccc(F)cc2)sc1CCNS(=O)(=O)c1cccc(Cl)c1	-7.7
COc1cc(OC)c(NC(=O)c2nc(Nc3ccc(C)cc3)c3ccccc3n2)cc1Cl	35.2
O=C1CCc2cc(S(=O)(=O)N3CCc4ccccc43)cc3c2N1CCC3	0.6
CCc1cn[nH]c1C1CCN(C(=O)c2cn(CC3CCCNC3)nn2)CC1 (stereo unspecified)	46.2
COCc1nnc(NC(=O)c2cccc(Cn3cccn3)c2)s1	14.2
COc1cccc(NC(=O)N2CCC(c3nc(C(=O)N4CCCC4)c(C)o3)CC2)c1	-56.1
CCOc1ccccc1C(=O)NCCc1csc(-c2ccc(OC)cc2)n1	-46.9
Cc1nc(-c2ccccc2)sc1CCNC(=O)C(=O)Nc1ccc(F)c(Cl)c1	21.7
COc1ccc2oc(=O)c(C(=O)N3CCN(c4ccccc4)CC3)cc2c1	8.9
COc1cccc(C(=O)NCCc2sc(-c3ccc(C)cc3)nc2C)c1	i
O=C(CC(c1ccccc1)c1ccccc1)Nc1ccncc1	-0.1
COCCSc1nnc(NC(=O)c2ccco2)s1	192.0
O=C(CNCC(c1ccccn1)N1CCOCC1)Nc1cnccn1 (stereo unspecified)	3.0
COc1ccc(NC(=O)Cn2ncc3c(N4CCN(c5ccccc5)CC4)ncnc32)cc1	-40.8
O=C(NCCc1csc(-c2ccc(Cl)cc2)n1)C(=O)Nc1ccccc1	15.4
CCn1nc(C)c(C(C)NC(=O)c2noc(C)c2Cc2c(C)noc2C)c1C (stereo unspecified)	13.0

A draw from above in order of molecular weight, highest first:
structure	Tgondii IFNg
Cc1nc(-c2ccccc2)sc1CCNC(=O)C(=O)Nc1ccc(F)c(Cl)c1	21.7
COc1ccccc1Nc1snc2[nH]c(C(=O)c3ccc(C)cc3)cc12	0.4
Cc1cccc(COC[C@]23COC[C@H]2CN(c2ncc(F)cn2)C3)n1	-29.7

The list goes on.
structure	Tgondii IFNg
COc1ccc(-c2ccc(NS(C)(=O)=O)nc2)c(OC)c1OC	-58.9
Nc1nc(N)n(-c2ccccc2)c(=Nc2ccccc2)n1	36.8&-16.4
COc1ccc(S(=O)(=O)NCc2nc(-c3ccccc3)oc2C)cc1	19.6
COc1ncccc1-c1nc(C(F)(F)F)nc(C)c1C	3.1
CCn1c(=O)c(-c2nc(-c3ccc(Br)cc3)no2)c(O)c2ccccc21	10.6
CN1C[C@H]2C3(CCN(CC4CCOCC4)CC3)CC[C@]2(C(=O)N(C)C)C1	8.2
O=C(c1ccco1)N1CCC2(CCOCC2COc2cnccn2)CC1 (stereo unspecified)	2.2
O=C1CCC2(CCN(C(=O)CC3CC3)CC2)N1	70.9
COCC1CN(C(=O)C2CCN(C(C)=O)CC2)CC12CCOCC2 (stereo unspecified)	-12.1
Cc1ccc(NC(=O)Cn2c(=O)cc(-c3nc(C(C)C)no3)c3ccccc32)cc1F	36.8
COc1cc(F)ccc1-c1c(-c2ccccc2)ncn1CCCO	-17.8
Cc1ccc(NC(=O)N2CCC(c3nc(C(=O)N4CCCC4)c(C)o3)CC2)c(C)c1	-77.4*
O=S(c1ccc(Cl)cc1)c1ccc(-c2ccccn2)s1 (stereo unspecified)	27.5
CCc1nccn1CCNC(=O)c1cccc(C2CCNC2)c1 (stereo unspecified)	15.9
CCn1ncnc1CN1CCC(CNC(=O)c2cccc(C)n2)C1 (stereo unspecified)	9.3
Cc1ccc(-c2nnc(-c3nc(NCc4ccccn4)c4ccccc4n3)o2)cc1	-94.1*
C/C=C/c1ccccc1[C@@H]1[C@@H](C#N)N(C(=O)NC2CCCCC2)[C@H]1CO	-6.3
Cc1ccc(-c2cc(O)c3c(c2)CN(Cc2snnc2C)CCO3)s1	-57.9
COc1cc(NC2CCS(=O)(=O)CC2)ncn1	3.4
CCCNC(=O)N(C)C[C@@H]1Oc2ncc(C#CC3CCCCC3)cc2C(=O)N([C@H](C)CO)C[C@H]1C	-56.1
O=C(OCC1CCNCC1)c1ccc(F)cc1	39.2
O=c1ccc2cc3ccoc3cc2o1	8.1
O=C(Nc1cccnc1)c1cc(-c2cnc(-c3ccccc3)nc2)cn1CC1CC1	-77.5*
O=S1(=O)CCC(S(=O)(=O)NCc2ccccc2)C1 (stereo unspecified)	-19.4
O=C(NCCN1CCc2ccccc2C1)C1CC(=O)N(Cc2ccncc2)C1 (stereo unspecified)	3.4
Cc1cnc2c(C(=O)N3CCn4nc(C(=O)NC5CC5)cc4C3)cnn2c1	2.9
O=C(c1cccc2[nH]cc(CN3CCCC3)c12)N1CCN(c2ccccc2)CC1	-32.7
CCc1ccc(NC(=O)Cn2ncc3c(N4CCC(C)CC4)ncnc32)cc1	126.9
CC(C)C(=O)Nc1nnc(SCC(=O)NCc2cccs2)s1	-52.8
O=C(NCC[C@H]1CC[C@H](NC(=O)c2ccncc2)[C@@H](CO)O1)Nc1ccc(Cl)cc1	-8.9
Cc1ccc(NC(=O)Cn2c(=O)cc(-c3nc(C)no3)c3ccccc32)c(C)c1	6.8
CC(C)N(C)Cc1cnc2n1CCN(S(=O)(=O)c1ccccc1)C2	-6.4
C[C@@H]1CCCCO[C@@H](CN(C)Cc2ccc(C(=O)O)cc2)[C@H](C)CN([C@@H](C)CO)C(=O)c2cc(N(C)C)ccc2O1	101.7
CC(C)c1noc(CCn2ccnc2-c2ncc[nH]2)n1	11.5
Cc1cccc(OC2CCN(C(=O)c3ccc(OCc4nonc4C)cc3)CC2)c1	-46.1
CO[C@H](CN(C)CC1CCOCC1)[C@@H](C)CN(C(=O)Nc1ccc(F)cc1)[C@@H](C)CO	10.4
COc1ccccc1-c1nc(Cn2nnc(C(=O)Nc3ccccc3F)c2C)c(C)o1	70.9
COCCN(Cc1cc2ccc(C)c(C)c2nc1Cl)C(=S)Nc1ccccc1Cl	-63.3
CN1C(=O)c2cc(NC(=O)CC(F)(F)F)ccc2OC[C@H]2O[C@@H](CC(=O)NC3CCC3)CC[C@@H]21	-1.4
CCCNC(=O)N(C)C[C@@H]1Oc2ncc(C#CC3CCCCC3)cc2C(=O)N([C@@H](C)CO)C[C@@H]1C	85.0
Cc1ccccc1NC(=O)CC(=O)N(C)Cc1snnc1C	-8.7
CC1CCC(C(C)C)C(OCC(O)CN2CCCCC2)C1 (stereo unspecified)	6.8
c1coc(CN2C[C@H]3[C@H](N4CCOCC4)c4ccccc4[C@@H]3C2)c1	1.3
COc1ccc(NC(=O)N(C)C[C@@H]2OCCCC[C@@H](C)Oc3ccc(NC(=O)c4ccncc4)cc3C(=O)N([C@H](C)CO)C[C@H]2C)cc1	i
Cc1sc2ncnc(N(C)Cc3ncc[nH]3)c2c1C	1.5
Cc1oc(-c2cccc(Cl)c2)nc1Cn1ccn2nc(-c3ccc(F)cc3)cc2c1=O	-54.7
COCCC(=O)N1CCCC2(CCCN2Cc2ccc(-c3ccccc3)cc2)C1 (stereo unspecified)	-7.7
Cc1ncccc1Oc1ncnc(N2CCCC3(CC2)CN(C)C(=O)O3)c1C (stereo unspecified)	-44.4
